CtBP-E1A inh = qHTS Assay for Inhibitors of the CtBP/E1A Interaction. CtBP / adenovirus E1A interaction (AlphaScreen). AlphaScreen GST-E1A/His-CtBP binding, 1536-well; hits give low values; control for the full effect not named in the record. activity change, % (concentration not given with the values). 0.49% of 340,000 active. AID 651724, 2012; in the data active means activity change below about -65%; inconclusive means about -30% to -65%; inactive means above about -30%; note: % is set by controls: 0 for no effect and ±100 for the full control effect
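Protein mix (5X: 125 nM each GST-E1A, His-CtBP) was incubated with pinned compound 2 h at 37 deg C in dark, in 50 mM Tris pH 8.0 buffer with 300 mM NaCl. Glutathione donor and nickel acceptor beads followed; AlphaScreen signal read after 1 h.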
D2 agonist = Beta-Arrestin HTS for Positive Allosteric Modulators of the Human D2 Dopamine Receptor: Agonists | activation, % (no concentration beside the values) | DiscoveRx PathHunter D2 beta-arrestin, luminescence, 90 min; 100% = 57 uM dopamine signal | D(2) dopamine receptor (Homo sapiens), P14416 | 0.084% of 360,000 active | AID 624465, 2012; in the data active = activation above about 40%; inconclusive = about 15% to 40%; inactive = below about 15%; note: compound concentration not given in the record; the text of the record calls up to 30% inactive
Target sequence (P14416 whole entry, looked up): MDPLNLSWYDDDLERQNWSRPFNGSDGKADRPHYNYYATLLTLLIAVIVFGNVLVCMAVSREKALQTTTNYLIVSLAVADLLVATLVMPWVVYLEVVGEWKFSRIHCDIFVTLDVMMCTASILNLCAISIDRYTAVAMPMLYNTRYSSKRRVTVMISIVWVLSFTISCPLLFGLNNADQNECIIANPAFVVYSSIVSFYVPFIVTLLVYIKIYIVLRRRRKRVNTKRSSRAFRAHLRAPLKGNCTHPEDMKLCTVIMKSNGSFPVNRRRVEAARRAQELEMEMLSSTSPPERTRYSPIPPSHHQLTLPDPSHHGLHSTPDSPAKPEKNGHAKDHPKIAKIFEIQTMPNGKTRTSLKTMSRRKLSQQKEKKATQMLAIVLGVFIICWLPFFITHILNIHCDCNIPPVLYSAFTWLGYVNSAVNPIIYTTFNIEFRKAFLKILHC
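Agonist mode: compounds alone added to overnight-plated D2 PathHunter cells for 90 min at 37 C, with 57 uM final dopamine (EC100) defining full response. Beta-arrestin recruitment detected by chemiluminescent reagent, read after 1 h at ambient temperature.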
PINK1 modulator = A Quantitative High throughput Screen to Identify Chemical Modulators of PINK1 Expression | Potency, µM (highest dose often 76.6 µM), for inactives: at the top dose activation (PINK1 increase), usual class: activators | PINK1 immunofluorescence, high-content cytometry, 24 h | 0.2% of 410,000 active | AID 624263, 2012; active = well fitted activation curve with a large enough effect; inconclusive = small, poorly fitted or top-dose-only effect; inactive = flat fitted curve, though single readings scatter; cell line not stated here;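 note: potency is the fitted concentration of half-maximal effect; % of control where 0% means no effect; nearly all actives have a fitted effect of over 65% in size; a mitochondrial uncoupler was the plate control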
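PINK1 protein level read as immunofluorescence by microplate cytometer in a fixed, stained stable cell line after 24 h exposure to five compound concentrations, with CCCP as control.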
Sfp inh = qHTS Assay for Inhibitors of Bacillus subtilis Sfp phosphopantetheinyl transferase (PPTase); 4'-phosphopantetheinyl transferase ffp (Bacillus subtilis), Q9F4F7; Biochemical Sfp PPTase activity, qHTS; Potency, µM, for inactives: max response, negative = inhibition, usual class: inhibitors; 3.5% of 310,000 active; AID 1490, 2009; active = well fitted inhibition curve with a large enough effect; inconclusive = small, poorly fitted or top-dose-only effect, or another doubt; inactive = no such curve, though single readings can be large or run the other way;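 note: the enzyme is Sfp with the accession as filed and its product quenches rhodamine fluorescence; potency is the fitted concentration of half-maximal effect; 0% = enzyme reaction without inhibitor and -100% = no enzyme wells; top concentration of the series not given in the record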
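After 15 min at room temperature with compound, 15 nM Sfp received 5 uM rhodamine-CoA plus 12.5 uM BHQ-2-ybbR (50 mM Hepes pH 7.6, 10 mM MgCl2). Rate came from the fluorescence difference over 30 min, ex 525/em 598 nm.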
TRPV1 potentiator = HTS Assay for Compounds that Act as Potentiators of the Vanilloid Receptor 1; Transient receptor potential cation channel subfamily V member 1 (Homo sapiens), Q8NER1; TRPV1-expressing cells, Fluo-8 calcium influx, capsaicin EC20 potentiation; host cell line not named in the record; control for the full effect not named in the record; potentiation, % at 8.33 µM; 0.02% of 320,000 active; AID 540277, 2011; active means potentiation above 80%; inconclusive means 30% to 80%; inactive means below 30%; note: 0% is about no effect
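Fluo-8 calcium influx in TRPV1-expressing cells, kinetic read (ex 480/em 520 nm). Compound added and read 3 min for agonist activity, followed by capsaicin at EC20 final and 2 min further read for enhancement.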
Six1-Eya2 inh = qHTS Assay for Inhibitors of the Six1/Eya2 Interaction | 0.56% of 360,000 active | AlphaScreen GST-Six1/His-Eya2 binding, biochemical; hits give low values; control for the full effect not named in the record | activity change, % (no concentration beside the values); in the data active = activity change below about -65%; inconclusive = about -30% to -65%; inactive = above about -30%; note: % is set by controls: 0 for no effect and ±100 for the full control effect; compound concentration not given in the record
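GST-Six1 + His-Eya2 (5X stock: 250/500 nM); Tris pH 8.0, 300 mM NaCl, 0.05% BSA, 0.02% Tween 20; GSH donor/Ni acceptor beads; 1 h 37 °C dark; AlphaScreen readout.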
D2 potentiator = Beta-Arrestin HTS for Positive Allosteric Modulators of the Human D2 Dopamine Receptor: Potentiators | 0.23% of 360,000 active | DiscoveRx D2 beta-arrestin cells, luminescence, 90 min; 100% = 57 uM dopamine signal | D(2) dopamine receptor (Homo sapiens), P14416 | AID 624464, 2012 | potentiation, % (test concentration not listed); active = potentiation of 50% or more; inconclusive = 30% to 50%; inactive = 30% or less;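 note: compound concentration not given in the record; tested on top of an EC20 dose of dopamine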
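D2 cells co-treated with compound plus 50 nM dopamine (EC20) for 90 min at 37 deg C to detect potentiation. Beta-arrestin recruitment was read as enzyme-fragment luminescence after 1 h at ambient temperature. Full response was set by 57 uM dopamine.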
* marks the source's active call; other numbers are inactive results; ? = inconclusive; . = no result given; [ ] = dose if it differs, or a comment. Not a hit list; overall some 3.7% were active at least once.

SMILES | CtBP-E1A inh | D2 agonist | PINK1 modulator | Sfp inh | TRPV1 potentiator | Six1-Eya2 inh | D2 potentiator
O=C(c1cc2nc(-c3ccc(Cl)cc3)cc(C(F)(F)F)n2n1)N1CCOCC1 | 19 | -1.2 | 3.3% | 2% | -11 | 14 | 1
CCOC(=O)c1cc2c(=O)n3ccccc3nc2n(C(C)C)c1=NC(=O)c1c(-c2ccccc2Cl)noc1C | -7 | -4.7 | ? | 10% | 19 | 5 | 2
Cc1n[nH]c(=O)c2c(NC(=O)CSc3c(Cl)cccc3Cl)oc(C)c12 | -1 | -8.8 | 13% | . | 19 | 2 | -10
Cc1cc(C(=O)CSc2nnc(-c3ccco3)o2)c(C)n1CC1COc2ccccc2O1 (stereo not given) | -13 | 0.8 | -0.7% | ? | 1 | -15 | -21
COc1ccccc1C=Cc1ccnc2ccccc12 | 24 | 0.2 | 3.5% | . | . | 21 | -12
CN(C)c1ccc(S(=O)(=O)N2CCC(Cc3ccccc3)CC2)cn1 | . | 14 | 4.5% | . | . | 1 | 0
O=C(Nc1ccc2c(c1)OCCO2)c1cccc(Cl)c1Cl | . | -0.8 | 1.0% | 2% | -10 | 1 | -26
O=C(CSc1nc2ncc(Cl)cc2[nH]1)c1c[nH]c2ccccc12 | 3 | 5.7 | 24% | 2% | 6 | 6 | 3
CCCC(C(=O)n1nc(C)cc1C)C(NS(=O)(=O)c1ccc(C)cc1)c1ccccc1 (stereo not given) | 5 | -1.2 | 8.3% | 3% | -9 | 10 | -19
COC(=O)c1ccccc1NC(=O)c1cnc2sccn2c1=O | 4 | -0.4 | -1.0%[38.3 µM] | 5% | -2 | 4 | 2
O=C(NCc1ccc2c(c1)OCO2)c1ccc2c(c1)OCCO2 | 4 | -1.4 | -1.5% | 11% | -4 | 5 | -3
CC[n+]1c(C)cc(C)n1-c1ccccc1 | 4 | -3.2 | 1.8% | 9% | 16 | 14 | 6
CN(Cc1ccccc1)C(=C(Cl)Cl)C(=C1NCCN1)[N+](=O)[O-] | 2 | -3.4 | -0.9% | -19% | 0 | -1 | -9
O=c1cc(CN2CCN(c3cccc(Cl)c3)CC2)c2cc(O)c(-c3ccccc3)cc2o1 | -1 | -2.9 | 1.3% | 0% | 5 | 0 | -5
O=S(=O)(c1ccc2ccccc2c1)N1CCN(S(=O)(=O)N2CCOCC2)CC1 | -1 | 1.1 | 11% | 11% | 14 | 8 | -13
Cc1ccc(C)c(OCc2n[nH]c(=S)o2)c1 | -1 | -2.5 | -0.6% | 12% | -2 | -10 | -6
Cn1cccc1/C=N/NC(=O)C(O)c1ccccc1 (stereo not given) | -3 | -3.1 | 1.8% | 1% | 18 | -3 | -9
COc1ccc(NC(=O)Cn2nnc(C(=O)NCc3cccs3)c2N)cc1OC | -1 | -2.7 | 3.0% | -16% | 5 | 1 | -9
O=C(Nc1ccccc1OC(F)F)c1ccc(Br)o1 | 13 | -2.0 | 2.0% | 0% | -5 | 16 | -1
CCC(CC)C(=O)Nc1nnc(S(=O)(=O)N2CCCc3ccccc32)s1 | 1 | -3.5 | 9.6% | 13% | ? | 0 | -3
O=C(NCc1cccc(Cl)c1)c1ccncc1 | -22 | -5.3 | 7.5% | -5% | -3 | -6 | -1
Cn1c(=O)n(Cc2ccco2)c(=N)c2c3c(sc21)CCCC3 | . | 0.8 | 1.6% | -9% | 3 | -6 | -9
CCc1cc2c(=O)c(-c3ccc4c(c3)OCCO4)c(C)oc2cc1OS(C)(=O)=O | -8 | 3.2 | -0.4% | -15% | -3 | 1 | -4
COc1ccc(N(Cc2cc3ccccc3[nH]c2=O)S(=O)(=O)c2ccccc2)cc1 | 2 | -9.4 | 0.8% | 3% | -5 | -6 | -6
N#CC1=C(N)SC(N)=C(C#N)C1c1ccnc2ccccc12 | 3 | 0.2 | -0.2% | 16µM* | 0 | -8 | 11
CNC(=S)NN=C(C)CCCC(C)=NNC(=S)NC | 5 | 2.3 | -0.6% | . | . | 0 | 2
CC(C)(C)CN1C(N)=NC[C@@H]1c1ccccc1 | 2 | 1.0 | -0.2% | . | . | 6 | -10
Cc1cc(OCC(=O)Nn2cnnc2)ccc1Br | 1 | -2.4 | 0.4%[38.3 µM] | -5% | -8 | 4 | -1
COc1cccc(NC(=O)c2ccc3c(c2)OCO3)c1 | -1 | -7.6 | 1.5% | 11% | -51 | 0 | -2
COc1cccc(C(C(=O)NC2CCCCC2)N(C(=O)c2csnn2)C2CC2)c1 (stereo not given) | 1 | -1.5 | 2.7% | 22% | -8 | -1 | -4
CC(=O)c1sc2nc(SCC(=O)NCCc3ccccc3)[nH]c(=O)c2c1C | 0 | -1.0 | 0.3% | -4% | ? | -8 | -6
Cc1cc2nnc(SCC(=O)N3CCN(c4ccccc4)CC3)n2c(N)n1 | -1 | -1.8 | 1.2% | 16% | 0 | 7 | -2
CN1C(=O)NC2C1N(S(C)(=O)=O)CCN2S(C)(=O)=O (stereo not given) | 1 | 0.8 | -4.4%[38.3 µM] | 8% | 12 | 3 | -3
CCCN(Cc1ccccc1)C(=S)Nc1ccc(SC(F)F)cc1 | 5 | -4.0 | ? | 21% | 2 | 7 | -7
CCOc1cc(C2C(C(=O)c3ccc(C)cc3)=C(C(=O)OC)Nc3nnnn32)ccc1O (stereo not given) | 3 | -3.6 | 1.7% | -5% | 16 | -1 | -11
COc1ccc(S(=O)(=O)N(C)C2(C)CCS(=O)(=O)C2)cc1OC (stereo not given) | -2 | -4.5 | 2.8% | . | -11 | 7 | 3
Fc1ccc(CNCC2CCCO2)cc1 (stereo not given) | -4 | -4.3 | -0.1% | 23% | -8 | 6 | -5
C=CCC(=O)NC(C)c1cnn(-c2ccccc2C)c1C (stereo not given) | . | -1.0 | 0.0% | 17% | 0 | 7 | -9
COc1ccc(CN(C)CC(=O)Nc2cccc(S(=O)(=O)N3CCCC3)c2)cc1F | . | 5.0 | 3.0% | . | . | -12 | -6
O=C(C1CCCC1)N1CCCC(Nc2ccccc2)C1 (stereo not given) | 5 | -1.9 | -0.2% | -1% | -7 | 1 | -17
CCC(C)[C@H](NC(=O)NCCCc1ccccc1)C(=O)OC (stereo not given in full) | 7 | -1.1 | 3.6%[38.3 µM] | 14% | -12 | 3 | -9
O=C(N=Nc1c(O)[nH]c2ccc(Br)cc12)c1ccco1 | -3 | -5.4 | 1.8% | . | . | -5 | -11
Cc1ccn2cc(CC(=O)O)nc2c1 | 3 | -1.4 | 4.1% | 56µM* | 1 | -19 | -8
CC12CCC(c3nnc(SCC(=O)Nc4cccc5ccccc45)nc31)C2(C)C (stereo not given) | -1 | -2.3 | -0.6% | 14% | -13 | -1 | -10
CC(Nc1nc(N2CCNCC2)nc2ccccc12)c1ccccc1 (stereo not given) | -1 | 8.9 | -0.1% | -12% | -4 | -4 | -17
Nc1cc(N)nc(SCc2cc(=O)oc3cc4c(cc23)CCC4)n1 | -2 | -1.3 | -0.1% | 6% | 0 | -8 | -10
CN(C)S(=O)(=O)N1CCCC(C(=O)c2ccc(-c3ccccc3)cc2)C1 (stereo not given) | -20 | -0.6 | 5.0% | 9% | 6 | -9 | 1
CC(=O)c1cccc(NC(=O)C(OC(=O)c2ccccc2NS(=O)(=O)c2cccs2)c2ccccc2)c1 (stereo not given) | 7 | -0.7 | -0.1% | 29% | 6 | 7 | -1
O=C(Nc1ccccc1Cl)c1cccc(NC(=O)C2C3CC4OC(=O)C2C4C3)c1 (stereo not given) | -4 | 1.1 | 7.9%[38.3 µM] | 8% | -1 | 1 | -7
COc1ccc(-c2cc(C(=O)Nc3cccnc3)c3ccccc3n2)cc1OC | 1 | 5.2 | 2.7% | 3% | -11 | 16 | -4
CC(C)(C)N1CC(c2nc3ccccc3n2Cc2ccccc2)CC1=O (stereo not given) | 0 | -0.9 | 9.3%[38.3 µM] | 5% | -15 | 4 | -5
COc1cc(C(=O)N2CCN(c3ccc(C)cc3C)CC2)cc(OC)c1OC | -2 | -2.9 | 2.6% | 12% | -6 | 0 | -9

Compound activity: PubChem BioAssay, National Center for Advancing Translational Sciences (NCATS)
